Screening results as filed in PubChem BioAssay.
Insulin prom inh = inhibitors of insulin promoter-driven GFP, primary screen, imaging, TRM-6 cells (human fetal islet line), eGFP reporter, cell count; reporter expression induced with tamoxifen; inhibition, % at 2 µM; 0.9% of 130,000 active;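 active = inhibition above the mean plus 3 SD, with well images judged a real hit on visual review, cut at about 60% in these data, passing the limit was not always enough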
GALR2 agonist = GALR2 receptor agonists, primary screen, cell-based | Galanin receptor type 2 (Homo sapiens), O43603 | 0.48% of 140,000 active | activation, %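 (tested at 5 µM)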 | AID 803, 2007 | GALR2-expressing cells, agonist activation read-out;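 active = above mean plus 3 SD of all compounds, about 5% in these data, not always enough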;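 note: 0% = vehicle buffer wells and 100% = reference agonist at full effect; tested in CHO reporter cells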
PKD1 inh = inhibitors of human PKD1 kinase, biochemical, fluorescence polarization; PKD1 kinase fluorescence polarization assay; inhibition, %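 (about 10 µM by stock and volumes)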; 0.056% of 200,000 active;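 active = inhibition of 50% or more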;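 note: controls were vehicle for no effect and a reference inhibitor for full effect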
Target sequence (Q15139 whole entry, looked up): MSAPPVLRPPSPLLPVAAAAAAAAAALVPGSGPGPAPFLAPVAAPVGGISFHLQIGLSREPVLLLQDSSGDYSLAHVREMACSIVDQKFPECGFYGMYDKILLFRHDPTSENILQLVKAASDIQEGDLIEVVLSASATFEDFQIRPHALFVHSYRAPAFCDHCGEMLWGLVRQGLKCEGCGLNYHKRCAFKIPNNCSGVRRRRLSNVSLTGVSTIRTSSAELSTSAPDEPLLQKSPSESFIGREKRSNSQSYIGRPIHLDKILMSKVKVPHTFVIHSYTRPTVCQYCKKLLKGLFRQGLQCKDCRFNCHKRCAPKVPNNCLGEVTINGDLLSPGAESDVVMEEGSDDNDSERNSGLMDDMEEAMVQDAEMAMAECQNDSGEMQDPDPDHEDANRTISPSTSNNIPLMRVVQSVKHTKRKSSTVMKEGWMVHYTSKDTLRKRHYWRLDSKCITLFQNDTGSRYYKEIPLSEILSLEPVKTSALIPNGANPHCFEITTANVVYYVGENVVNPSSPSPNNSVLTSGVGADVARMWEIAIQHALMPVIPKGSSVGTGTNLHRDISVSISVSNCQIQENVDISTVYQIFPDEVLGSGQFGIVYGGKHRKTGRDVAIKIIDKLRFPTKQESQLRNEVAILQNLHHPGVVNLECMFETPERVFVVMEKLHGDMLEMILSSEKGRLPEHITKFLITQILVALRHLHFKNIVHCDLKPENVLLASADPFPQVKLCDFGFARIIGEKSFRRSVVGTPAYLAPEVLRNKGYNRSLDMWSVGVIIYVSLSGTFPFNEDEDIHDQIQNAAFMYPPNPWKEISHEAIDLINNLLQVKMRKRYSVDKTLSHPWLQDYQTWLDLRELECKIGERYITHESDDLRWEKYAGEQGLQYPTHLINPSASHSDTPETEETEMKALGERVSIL
RGS16-Gao HTS = modulators of RGS16 binding to Galphao, primary screen, biochemical, human proteins, multiplexed bead flow cytometry; Regulator of G-protein signaling 16 (Homo sapiens) + Guanine nucleotide-binding protein …; bead-based flow cytometry RGS16-Galphao binding, fluorescence; actives lie on both sides; binding response (% of control), % at 10 µM; 0.38% of 220,000 active;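 active = below 25% or above 175%, edge rows of some plates excepted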;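 note: Galphao activated by GDP with aluminum fluoride before binding; 100% = wells without compound and 0% = beads without RGS; some results beyond the cut were filed as inactive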
HSV augment = enhancers of HSV replication in host cells, fold increase, host cell viability | 0.005% of 220,000 active | maximum fold increase | AID 1956, 2009 | HSV replication augmentation in cells;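 active = peak rise of 1.5-fold or more in the series; tested in PC3 cells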;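 note: first round at 10 µM; read as green reporter fluorescence; hits show the peak of a series up to 25 µM; 1 = signal of infected wells without compound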
Insulin prom inh cell count = recorded beside Insulin prom inh, whose call it bears; normalized cell count, %; measured here: cell count, toxicity; reference of the scale not given here;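 cells exposed to compound for 48 h; stained nuclei by imaging scaled within each plate; lower means fewer cells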
HSV augment primary fold = second read-out of HSV augment, no call of its own (marks repeat the call); fold increase; compound at 10 µM; measured here: primary screen fold increase 10 uM; tested in PC3 cells;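 GFP signal in the first replicate; 1 = infected wells without compound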
* marks the source's active call; other numbers are inactive results; i = inactive; · = no result given.

SMILES | Insulin prom inh | Insulin prom inh cell count | GALR2 agonist | PKD1 inh | RGS16-Gao HTS | HSV augment | HSV augment primary fold
CCOC(=O)c1ccc(N2C(=O)CC(N(C)Cc3ccccc3)C2=O)cc1 (stereo not drawn) | 47.2 | 58.1 | -3.3 | 2.6 | 101.2 | i | 1.05
COc1cccc(-c2cc(C(F)(F)F)nc(N3CCOCC3)n2)c1 | -40.0 | 98.0 | -1.4 | -2.7 | 103.8 | i | 0.95
O=C(CN1C(=O)c2ccccc2C1=O)Nc1cccc(S(=O)(=O)Nc2ccccc2Cl)c1 | 49.0 | 102.8 | -1.6 | -4.8 | 96.1 | i | 0.89
COc1cccc(-n2c(-c3ccco3)nc3nc4ccccc4nc32)c1 | -37.5 | 104.5 | -1.3 | -6.5 | 159.2 | i | 1.05
COC(=O)c1nnn(-c2ccc(Cl)c(Cl)c2)c1C(=O)OC | -11.1 | 96.0 | · | -2.7 | 73.0 | i | 0.89
Cc1cc2ccccc2c(=O)n1CC(=O)NCC(=O)N1CCN(c2cccc(Cl)c2)CC1 | -71.4 | 122.8 | -1.0 | -7.6 | 103.0 | i | 1.16
c1ccc(CSc2ncnc3c2cnn3-c2ccccc2)cc1 | 18.8 | 98.9 | 0.7 | 0.7 | 99.9 | i | 1.03
CSC1=NCCN1S(=O)(=O)c1ccc(F)cc1 | 0.0 | 133.5 | · | 3.6 | 99.7 | · | ·
O=C(OCc1nc2ccccc2s1)c1cc2ccccc2oc1=O | 12.5 | 100.6 | -2.4 | -11.4 | 103.9 | i | 0.88
COC(=O)C1CCN(C(=O)COC(=O)Cn2cnnn2)CC1 | 18.2 | 86.7 | 159.5* | 7.8 | 111.9 | i | 0.983
CC1Sc2ccc(Cl)cc2-c2nc(N)ncc21 (stereo not drawn) | · | · | · | 4.7 | 74.1 | i | 0.98
CCc1ccc(NC2=NC(C(=O)NC3CCCCC3)CC(=O)N2)cc1 (stereo not drawn) | -82.3 | 100.0 | -2.4 | 1.4 | 102.9 | i | 1.16
CC1CCCN(CC(=O)Nc2ccc(S(=O)(=O)N3CCCCC3)cc2)C1 (stereo not drawn) | -169.0 | 139.7 | -0.5 | -1.6 | 96.2 | i | 0.95
CC1(NC(=O)c2cc(S(=O)(=O)N3CCCCC3)ccc2Cl)CCS(=O)(=O)C1 (stereo not drawn) | -36.2 | 112.8 | -1.8 | -0.1 | 97.9 | i | 1.06
O=C1CCCC(O)=C1Sc1ccccc1C(=O)O | · | · | · | -7.6 | 102.0 | i | 0.84
COc1ccc(S(=O)(=O)Cc2ccc(C(=O)N3CCN(c4cccc(C)c4C)CC3)o2)cc1 | · | · | -0.6 | -4.0 | 100.9 | i | 0.75
CCCSC(=O)N(CC)CC(=O)Nc1c(CC)cccc1CC | -62.1 | 80.8 | -3.5 | -1.3 | 98.5 | i | 1
COc1ccccc1OCCCCCNCCO | · | · | -1.7 | -2.3 | 105.4 | i | 0.96
O=C(CSc1nc2ccccc2s1)NNC(=O)Nc1ccc(Cl)c(Cl)c1 | -20.8 | 83.4 | -4.7 | 2.6 | 99.9 | i | 0.94
CCCCNC(=O)n1c(SC)nc2ccccc21 | 57.1 | 98.5 | 0.1 | 1.8 | 103.9 | i | 1.02

An excerpt from above in order of heavy-atom count, smallest number first.
SMILES | Insulin prom inh | Insulin prom inh cell count | GALR2 agonist | PKD1 inh | RGS16-Gao HTS | HSV augment | HSV augment primary fold
COc1ccccc1OCCCCCNCCO | · | · | -1.7 | -2.3 | 105.4 | i | 0.96
COC(=O)C1CCN(C(=O)COC(=O)Cn2cnnn2)CC1 | 18.2 | 86.7 | 159.5* | 7.8 | 111.9 | i | 0.983
c1ccc(CSc2ncnc3c2cnn3-c2ccccc2)cc1 | 18.8 | 98.9 | 0.7 | 0.7 | 99.9 | i | 1.03
COc1cccc(-c2cc(C(F)(F)F)nc(N3CCOCC3)n2)c1 | -40.0 | 98.0 | -1.4 | -2.7 | 103.8 | i | 0.95
CCc1ccc(NC2=NC(C(=O)NC3CCCCC3)CC(=O)N2)cc1 (stereo not drawn) | -82.3 | 100.0 | -2.4 | 1.4 | 102.9 | i | 1.16
O=C(CSc1nc2ccccc2s1)NNC(=O)Nc1ccc(Cl)c(Cl)c1 | -20.8 | 83.4 | -4.7 | 2.6 | 99.9 | i | 0.94
CC1(NC(=O)c2cc(S(=O)(=O)N3CCCCC3)ccc2Cl)CCS(=O)(=O)C1 (stereo not drawn) | -36.2 | 112.8 | -1.8 | -0.1 | 97.9 | i | 1.06
O=C(CN1C(=O)c2ccccc2C1=O)Nc1cccc(S(=O)(=O)Nc2ccccc2Cl)c1 | 49.0 | 102.8 | -1.6 | -4.8 | 96.1 | i | 0.89
COc1ccc(S(=O)(=O)Cc2ccc(C(=O)N3CCN(c4cccc(C)c4C)CC3)o2)cc1 | · | · | -0.6 | -4.0 | 100.9 | i | 0.75

The list goes on:
SMILES | Insulin prom inh | Insulin prom inh cell count | GALR2 agonist | PKD1 inh | RGS16-Gao HTS | HSV augment | HSV augment primary fold
CC(CC(=O)NC1CCCC1)c1ccccc1 (stereo not drawn) | -25.0 | 45.6 | -2.3 | -3.3 | 97.7 | i | 0.83
c1ccc2cc3c(NCCN4CCOCC4)ccnc3cc2c1 | 2.8 | 101.4 | 2.8 | -5.3 | 102.6 | i | 0.61
COC(=O)c1ccc(CNC(=O)COC(=O)CC23CC4CC(CC(Br)(C4)C2)C3)cc1 | 51.6 | 66.9 | -0.6 | -1.5 | 77.6 | i | 1.21
COc1ccc(CNC(=O)C(C)Sc2ccc(C)cc2)cc1 (stereo not drawn) | · | · | · | 2.9 | 99.5 | i | 1.06
Cc1ccc(C(=O)c2coc3ccc(OCC(=O)O)cc23)cc1 | 30.2 | 61.5 | -1.5 | -15.0 | 97.0 | i | 0.93
CC(=O)OCC1(C)CN(c2ccccc2)N(C(C)=O)C1=O (stereo not drawn) | · | · | · | -7.9 | 102.0 | i | 1.09
CCOc1ccc(-c2csc(C3COc4ccccc4O3)n2)cc1 (stereo not drawn) | 6.7 | 85.4 | -0.9 | -12.8 | · | i | 0.95
O=C/C(=C\Nc1ccc(C(=O)N2CCOCC2)cc1)c1nc2ccccc2o1 | · | · | · | 10.7 | 98.3 | i | 1.07
CCCCOc1cccc(C(=O)NC(=S)Nc2ccc(Cl)c(C(=O)O)c2)c1 | · | · | · | -7.0 | 105.5 | i | 0.99
CCOC(=O)Cc1csc(NC(=S)NC(=O)c2ccc([N+](=O)[O-])cc2)n1 | -17.9 | 100.0 | 0.3 | 5.7 | 97.7 | i | 0.99
S=C(NC1CCCC1)NN1CCOCC1 | 28.6 | 129.9 | · | 5.6 | 102.8 | i | 1
C=CCc1ccc(OCCOc2cccc3ccc(C)nc23)c(OC)c1 | -47.2 | 63.4 | 0.4 | -2.2 | 92.3 | i | 0.94
O=C(CN1C(=O)NC2(CCCCCCC2)C1=O)NCc1cccs1 | · | · | -0.7 | 4.8 | 107.1 | i | 0.89
CN1CCN(C(=O)c2ccc3nc(-c4ccccc4)c(-c4ccccc4)nc3c2)CC1 | · | · | · | -2.6 | 100.0 | i | 1.01
CCC/C(=N/NC(=O)c1csc(C)c1C)c1ccc(Cl)s1 | 31.0 | 101.4 | -1.3 | -6.4 | 99.0 | i | 1.07
Nc1nc(Cl)cc(Oc2ccc(Cl)cc2)n1 | · | · | · | 5.0 | 103.5 | i | 0.99
CC1Sc2n(c3ccccc3[n+]2C)N=C1c1ccccc1 (stereo not drawn) | 48.1 | 58.0 | -0.2 | -9.1 | 90.1 | i | 0.96
COc1ccccc1N(CC(=O)N(CC(C)C)CC(C)C)S(=O)(=O)c1cccs1 | · | · | · | 9.9 | 100.5 | i | 1.02
O=C1C(Cl)=C(N2CCC(C(=O)O)CC2)C(=O)c2ccccc21 | · | · | · | · | 92.5 | i | 1.05
COc1cccc(C(=O)O/N=C(\N)c2ccc([N+](=O)[O-])cc2)c1 | -33.3 | 68.4 | 0.4 | 3.8 | 89.3 | i | 0.82
Cc1cccc(C)c1N=C1SC(CC(=O)Nc2c(C)cccc2C)C(=O)N1CCc1ccccn1 (stereo not drawn) | 0.0 | 83.1 | -1.5 | 0.0 | 112.8 | i | 0.89
O=c1[nH]cnc2c1nc(SCc1ccccc1)n2C1OC(CO)C(O)C1O (stereo not drawn) | 27.0 | 79.0 | 0.2 | -6.9 | 99.6 | i | 0.81
O=C(OCc1cnc(Cl)s1)c1cccc(Cl)c1 | · | · | -0.8 | -6.8 | 105.2 | i | 0.96
CCOC(=O)Cn1c(=O)oc2cc(S(=O)(=O)Nc3cc(OCC)ccc3OCC)ccc21 | · | · | -1.3 | -5.8 | 107.8 | i | 1.12
Cc1c2cnn(-c3ccccc3)c(=O)c2c(C)n1CCCC(=O)NCCN1CCN(C)CC1 | · | · | · | · | 98.8 | i | 1.02
Cc1cc(C)cc(C(=O)NCC(=O)OC(C)C(=O)N(C)c2ccccc2)c1 (stereo not drawn) | · | · | · | -0.2 | 94.6 | i | 0.99
Cc1ccccc1N(C(=O)c1cccs1)c1nc2ccccc2s1 | · | · | 4.8 | 1.9 | 97.5 | · | ·
CCS(=O)(=O)n1nc(C(=O)N2CCOCC2)nc1N | · | · | -1.6 | -5.1 | 101.3 | i | 0.83
COc1ccc(-c2ccc(C(=O)O)o2)c([N+](=O)[O-])c1 | -22.2 | 105.6 | · | -8.2 | 106.0 | i | 1.06
COc1cccc(NC(=S)N(CCc2nc3cc(C)c(C)cc3[nH]2)Cc2cccnc2)c1 | 46.4 | 94.5 | -3.2 | -5.3 | 102.1 | i | 0.91
CCN(CC)S(=O)(=O)c1cc(NC(=O)COC(=O)Cn2cnc3ccccc32)ccc1C | 28.6 | 138.7 | -0.8 | -6.2 | 105.7 | i | 0.96
Cc1cc(C)c(NC(=O)C2CCCN2CCOC(=O)c2ccccc2)c(C)c1 (stereo not drawn) | 33.3 | 53.2 | -0.8 | 1.0 | 96.9 | i | 1
CCCCCC(=O)NNC1=NCC(Cc2cccc(Cl)c2)S1 (stereo not drawn) | -8.6 | 103.5 | · | -11.2 | 104.6 | i | 0.9
NS(=O)(=O)c1ccc(N=Nc2ccc(=O)[nH]c2O)cc1 | · | · | · | · | 86.8 | i | 0.9
COc1ccccc1OC1=NS(=O)(=O)c2ccccc21 | 5.9 | 86.4 | -1.0 | -5.2 | 92.6 | i | 1.02
CCOc1ccccc1C(=O)NC(C(=O)NCc1ccccc1OC)C(C)C (stereo not drawn) | · | · | · | 0.6 | 101.1 | i | 0.96
Cc1cc(N2CCOCC2)nc2ccc(NC(=S)NCc3ccc4c(c3)OCO4)cc12 | 28.6 | 120.2 | · | -9.0 | 103.7 | i | 0.95
O=C(/C=C/c1ccccc1)N/C(=C/c1ccccc1)C(=O)NCCO | · | · | -4.0 | 3.6 | 80.0 | i | 0.86
Clc1ccc(-c2nc3ccccc3nc2-c2ccccc2)cc1 | 23.1 | 178.9 | 0.8 | -0.1 | 105.1 | i | 0.96
CCN(CC(=O)NC1CCS(=O)(=O)C1)S(=O)(=O)c1ccc(F)cc1 (stereo not drawn) | 0.0 | 87.9 | 0.1 | -12.9 | 98.8 | i | 1.06
O=C(Oc1cccc(Oc2ccccc2)c1)N1CCOCC1 | -16.1 | 154.3 | -0.6 | -8.0 | 99.7 | i | 0.97
O=C(NC(=S)Nc1cc(C(F)(F)F)ccc1Cl)c1ccccc1 | 17.2 | 73.8 | -0.9 | 0.6 | 101.0 | i | 0.97
COc1ccc(CNC(=O)Cn2cnc3c(=O)n(C)c(=O)n(C)c32)cc1 | 6.9 | 101.1 | -3.9 | -9.2 | 99.7 | i | 1.13
COc1ccc(-n2cnnc2SCC(=O)c2ccc(S(=O)(=O)N3CCOCC3)cc2)cc1 | · | · | -0.9 | -11.8 | 100.0 | i | 0.95
COc1cc(CNc2ncn[nH]2)ccc1OCc1cccc(C)c1 | · | · | · | 3.4 | 94.2 | i | 1.01
O=C(O)Cc1sc(-c2ccccc2)nc1-c1ccccc1 | 21.9 | 128.9 | -1.5 | -10.8 | 99.2 | i | 0.86
O=C1C=C(N2CCN(C3=CC(=O)CCC3)CC2)CCC1 | -12.5 | 88.8 | -2.9 | -2.6 | 107.8 | · | ·
O=C(NCc1ccccc1Cl)C1CCN(S(=O)(=O)N2CCCCC2)CC1 | · | · | -2.9 | -1.9 | 114.4 | i | 1.04
COc1ccc(CCN2C(=O)CC(Cc3ccc(Br)cc3)C2=O)cc1OC (stereo not drawn) | -25.6 | 65.5 | -0.4 | -1.0 | 102.5 | i | 0.93
CCCOc1ccc(N2C(=O)CC(N(CCc3ccccc3)C(=O)c3ccccc3)C2=O)cc1 (stereo not drawn) | · | · | · | -1.7 | 103.2 | i | 0.95
